Source: PubChem BioAssay (National Center for Advancing Translational Sciences (NCATS))
DNA Pol III inh – blocks replication by bacterial DNA polymerase III holoenzyme; reconstituted DNA polymerase III holoenzyme replication, biochemical; Potency, µM (highest dose often 57.1 µM), for the others: at the highest dose activity change, negative = inhibition; 71,000 compounds, 0.25% hits; note: potency is the fitted concentration of half-maximal effect; % is set by controls: 0 for no effect and ±100 for the full control effect
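Reconstituted *E. coli* holoenzyme (0.35 nM Pol III, 1 nM beta, 154 nM SSB, 2 nM primase) was preincubated with compound for 15 min at RT. Synthesis on 1.4 nM ssM13Gori ran 35 min, then was stopped with PicoGreen/EDTA and read as dsDNA fluorescence.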
15-hLO inh – 15-hLO (ALOX15) enzyme inhibition; 74,000 compounds, 1.4% hits; purified 15hLO-1, xylenol orange hydroperoxide absorbance; Potency, µM (highest dose often 57.1 µM), for the others: top-dose activity change, negative = inhibition, actives largely listed as inhibitors; P16050; AID 887; note: potency is the fitted concentration of half-maximal effect; % is set by controls: 0 for no effect and ±100 for the full control effect; nearly all actives have a fitted effect of over 55% in size
Target sequence (P16050 whole entry, looked up): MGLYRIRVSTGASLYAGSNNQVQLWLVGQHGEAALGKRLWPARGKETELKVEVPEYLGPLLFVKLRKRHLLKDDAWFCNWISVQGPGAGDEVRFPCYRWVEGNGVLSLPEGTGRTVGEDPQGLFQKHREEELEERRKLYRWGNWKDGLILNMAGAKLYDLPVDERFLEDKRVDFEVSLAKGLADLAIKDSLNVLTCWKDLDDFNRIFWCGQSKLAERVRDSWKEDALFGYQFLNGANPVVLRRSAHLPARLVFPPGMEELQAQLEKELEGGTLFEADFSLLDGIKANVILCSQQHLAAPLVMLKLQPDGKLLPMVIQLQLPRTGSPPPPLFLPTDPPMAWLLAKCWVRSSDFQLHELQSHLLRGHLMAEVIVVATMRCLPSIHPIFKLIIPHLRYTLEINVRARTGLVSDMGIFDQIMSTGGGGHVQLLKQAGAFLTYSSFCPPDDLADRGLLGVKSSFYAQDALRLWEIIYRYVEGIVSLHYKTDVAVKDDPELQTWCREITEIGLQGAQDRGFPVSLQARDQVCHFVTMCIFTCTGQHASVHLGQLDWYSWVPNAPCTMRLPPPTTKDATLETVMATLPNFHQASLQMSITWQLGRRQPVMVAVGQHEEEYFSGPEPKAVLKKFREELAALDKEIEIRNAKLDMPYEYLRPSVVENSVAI
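Readout: Fe(III)-xylenol orange absorbance, 573-to-405 nm ratio as reaction progress. Enzyme 40 nM purified human 15hLO-1, substrate 50 uM arachidonic acid, 6 min RT after 15 min compound preincubation; Hepes pH 7.5 buffer with Triton X-100.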
UbGFP stabilizer – proteasome inhibitors stabilizing ubiquitin-GFP reporter; 67,000 tested, under 10 active; Potency, µM (series often up to 45.9 µM), for the others: top-dose activation (GFP accumulation), usual class: activators; AID 526; Ubiquitin-GFP reporter cells, proteasome inhibition, GFP fluorescence; response scale: untreated = 0%, 10 µM MG-132 = 100%; active = well fitted activation curve with a large enough effect, not every such curve was filed as active; inconclusive = small, poorly fitted or top-dose-only effect, or another doubt; inactive = no such curve, though single readings can be large or run the other way; note: potency is the fitted concentration of half-maximal effect
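U2OS Ub(G76V)-GFP reporter; O/N plating, 0.5% FBS; cpd 46 uM–2.9 nM, 4 h, 37 °C; GFP+ cell count, 488/515 nm; norm. to basal vs 10 uM MG-132; CRC fit.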
Epigenetic mod – derepresses silenced GFP locus in mouse C127i cells | mouse C127i GFP locus derepression, cytometry, 30 h | Potency, µM (top dose mostly 46.1 µM), for the others: at the top dose GFP derepression (activation) | 68,000 compounds, 0.09% hits; note: % of control where 0% means no effect
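Derepression screen: silenced CMV-GFP reporter in murine C127i cells, 30 h compound incubation at 37 C, washed cells imaged by laser-scanning cytometer to enumerate GFP-expressing objects of 20 to 120 um.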
Hsp90 Hop PPI – changes Hsp90-Hop TPR2A binding signal, up or down; AlphaScreen TPR2A-His6 binding biotin-Hsp90 C-terminal peptide; Potency, µM (highest dose often 57 µM), without a hit: top-dose activity change, negative = inhibition; 71,000 compounds, 0.44% hits; active = well fitted curve in either direction with a large enough effect; inconclusive = small, poorly fitted or top-dose-only effect, or another doubt; note: potency is the fitted concentration of half-maximal effect; % is set by controls: 0 for no effect and ±100 for the full control effect; many of its hits are not listed in these tables
HBB splicing – hemoglobin beta splicing modulation; HBB splicing reporter cell assay, activation; EGFP reporter with mutant IVS2-654 intron; response scale: normalised to 500 nM splice-correcting PNA; Potency, µM (series often up to 46.1 µM), for the others: at the top dose activation, usual class: activators; 65,000 compounds, 0.06% hits; note: potency is the fitted concentration of half-maximal effect; 0% is about no effect
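HeLa cells stably expressing EGFP interrupted by mutant beta-globin intron 2 (IVS2-654), 500/well in 2% FCS. Treated with compound for 2 days at 37C. Splicing correction scored as total well GFP intensity (488 nm excitation, 500-520 nm emission); 500 nM antisense PNA served as control.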
Numbers without * were called inactive; ? = inconclusive; nt = no result given; [ ] = remark or other dose. Unless noted, calls come from the whole dose curve; as a rule, active = well fitted curve in the direction sought with a large enough effect; inconclusive = small, poorly fitted or top-dose-only effect, or another doubt; inactive = no such curve, though single readings can be large; an effect the other way counts as inactive or inconclusive. A portion of the library; the hit share may differ from the screen's.

nr | Molecule | DNA Pol III inh | 15-hLO inh | UbGFP stabilizer
1 | Cc1ccc(Cn2c(SCCN3CCCCC3)nc3c2c(=O)[nH]c(=O)n3C)cc1 | -4% | -16% | 0%
2 | c1ccc2c(c1)CCN(c1ncnc3nc[nH]c13)C2 | -7% | -2% | 3%
3 | CCCCOC(=O)Nc1sc2c(c1C(=O)OC)CCC2 | 0% | -6% | 1%
4 | CC1Cc2nc(SCC(=O)N3CCCc4ccccc43)n(C)c(=O)c2S1 (stereo not given) | -2% | -2% | -4%
5 | CCOC(=O)N1CCC(NC(=O)CSCc2nc(-c3sccc3C)oc2C)CC1 | 4% | 2% | -4%
6 | CCCCn1c(CN2CCN(C(=O)c3ccco3)CC2)nc2c1c(=O)n(C)c(=O)n2C | -5% | -9% | 7%
7 | COc1ccc2nc(NC(=O)C3CCCN(S(=O)(=O)c4c(C)noc4C)C3)sc2c1 (stereo not given) | 2% | -14% | -4%
8 | COCC(=O)Nc1cc(C)c2c(=O)oc3ccccc3c2n1 | 0% | -3% | 8%

nr | Epigenetic mod | Hsp90 Hop PPI | HBB splicing
1 | nt | -4% | 0.5%
2 | nt | -2% | 0.0%
3 | -2% | ? | -0.3%[9.22 µM]
4 | nt | -2% | -0.7%
5 | nt | -4%[2.3 µM] | -0.9%
6 | nt | -3% | -0.6%
7 | nt | -2%[2.3 µM] | -0.4%
8 | nt | -3% | -0.4%

Remaining list, next part.
nr | Molecule | DNA Pol III inh | 15-hLO inh | UbGFP stabilizer
9 | FC(F)(F)c1cccc(CN2CCCCCC2)c1 | nt | -9% | nt
10 | O=C(Cc1ccc(Cl)cc1)Nc1ccc(-c2nnc(-c3ccco3)o2)cc1 | 20µM* | -9% | -17%
11 | COC(=O)C1C(O)=C(C=NCC(C)N=CC2=C(O)C(C(=O)OC)C(C)(C)CC2=O)C(=O)CC1(C)C (stereo not given) | -2% | 13% | 11%
12 | CCOc1cccc(C(=O)Nc2cccc(-c3nnc(-c4ccccc4)o3)c2)c1 | 4%[11.4 µM] | -14%[11.4 µM] | 0%[9.17 µM]
13 | Cc1ccc(NC(=O)CC2Oc3ccccc3NC2=O)c(C)c1 (stereo not given) | 0% | 2% | 6%
14 | CCc1nnc(NC(=O)CSc2nnc(Cc3cccn3C)n2CCOC)s1 | 1% | 6% | 0%
15 | CCN(CCCNc1ncnc2nc[nH]c12)c1cccc(C)c1 | -6% | ? | -5%
16 | CCOC(=O)c1c(-c2ccc(C)o2)csc1N | -12%[11.4 µM] | 1.6µM* | 21%[9.17 µM]

nr | Epigenetic mod | Hsp90 Hop PPI | HBB splicing
9 | nt | nt | nt
10 | 0% | -3% | 0.6%
11 | 12% | 0% | -1.4%
12 | 11% | -8%[11 µM] | -3.0%[0.0738 µM]
13 | nt | -3%[2.3 µM] | -0.7%
14 | nt | 2% | 0.2%
15 | nt | -8% | -0.4%
16 | 3% | ? | -1.4%[0.0738 µM]

Compound profiles, from the list above:
O=C(Cc1ccc(Cl)cc1)Nc1ccc(-c2nnc(-c3ccco3)o2)cc1 is entered as DNA Pol III inh = 20µM*; 15-hLO inh = -9%; UbGFP stabilizer = -17%; Epigenetic mod = 0%; Hsp90 Hop PPI = -3%; HBB splicing = 0.6%
CCN(CCCNc1ncnc2nc[nH]c12)c1cccc(C)c1 is entered as DNA Pol III inh = -6%; 15-hLO inh = ?; UbGFP stabilizer = -5%; Epigenetic mod = nt; Hsp90 Hop PPI = -8%; HBB splicing = -0.4%

Carrying on.
nr | Molecule | DNA Pol III inh | 15-hLO inh | UbGFP stabilizer
17 | Cc1nc(NCCO)c2nc(-c3ccccc3)n(CCCN(C)C)c2n1 | -3% | 2% | 7%
18 | CCn1c(SCC(=O)NCc2ccc(F)cc2)nc2c(c1=O)SC(C)C2 (stereo not given) | -7% | 3% | 15%
19 | CC(=O)n1nc(-c2ccco2)nc1SCc1ccccc1 | ? | 4µM* | 1%
20 | COC(=O)c1c(-c2cccc(OC)c2)csc1N | -8% | -20% | 10%
21 | COc1ccc(S(=O)(=O)Nc2nnc(C(C)(C)C)s2)cc1 | -3%[11.4 µM] | -13%[11.4 µM] | -17%[9.17 µM]
22 | Cc1ccc(-n2c(SCC(=O)Nc3cc(C)on3)nc3c(c2=O)SC(C)C3)cc1 (stereo not given) | -4% | 4% | -3%
23 | COc1cccc(Cn2nnc(C(=O)Nc3cc(Cl)ccc3OC)c2N)c1 | -3% | -5% | 6%
24 | O=c1[nH]cnc2c1sc(=S)n2-c1ccccc1 | 0%[11.4 µM] | -25%[11.4 µM] | 27%[9.17 µM]

nr | Epigenetic mod | Hsp90 Hop PPI | HBB splicing
17 | nt | -1% | -1.2%
18 | nt | -3% | -0.8%
19 | 0% | -29% | -0.9%
20 | nt | -4% | -0.1%
21 | -2% | -2%[11 µM] | -3.4%[0.0738 µM]
22 | nt | -5% | 0.1%
23 | nt | 0%[2.3 µM] | -1.0%
24 | 0% | -2%[11 µM] | -0.1%[0.0738 µM]

Next section
nr | Molecule | DNA Pol III inh | 15-hLO inh | UbGFP stabilizer
25 | Cc1cc(C(=O)Nc2ccc3c(c2)OCCO3)co1 | nt | 2% | nt
26 | Cn1nc(-c2ccc(Cl)cc2)c2cc(C(=O)NCCCN3CCCC3)sc21 | -26% | -20% | -3%
27 | Cc1c(C(=O)Nc2ccncc2)sc2nc(-c3ccccc3)cn12 | -15% | -3% | 2%
28 | O=C1OC(=O)c2c(Br)c(Br)c(Br)c(Br)c21 | 0% | -3% | nt
29 | Cc1sc(NC(=O)c2cccs2)c(C(N)=O)c1C | -3% | -12% | -12%
30 | CCN(CC)CCCNC(=O)c1cc2c(-c3ccc(Cl)cc3)nn(C)c2s1 | ? | -5% | 12%
31 | CC(=O)CSc1nc2ccc(Nc3nc(N4CCOCC4)nc(N4CCOCC4)n3)cc2s1 | 5% | -24% | 0%
32 | O=C(CC1Oc2ccccc2NC1=O)NCCc1ccccc1 (stereo not given) | -5% | 13% | 12%

nr | Epigenetic mod | Hsp90 Hop PPI | HBB splicing
25 | nt | nt | nt
26 | nt | 4%[2.3 µM] | -1.3%
27 | nt | -6% | 0.1%
28 | nt | -6% | -0.6%
29 | -2% | 1% | 0.2%[9.22 µM]
30 | nt | -4%[2.3 µM] | 0.1%
31 | -4% | -8% | -5.5%
32 | -2% | -3% | 0.5%

More entries.
nr | Molecule | DNA Pol III inh | 15-hLO inh | UbGFP stabilizer
33 | CCc1c(C)sc(NC(=O)C2CCCCC2C(=O)O)c1C(N)=O (stereo not given) | -5% | ? | -6%
34 | N#CCSc1nnc2sc3ccccc3n12 | 2% | 4% | -9%
35 | CC1(C)CC(=O)CC(C2(O)C(=O)N(Cc3ccccc3)c3ccccc32)O1 (stereo not given) | -1% | -7% | 7%
36 | CC1Cc2nc(SCC(N)=O)n(C)c(=O)c2S1 (stereo not given) | -7% | -21% | -2%
37 | Cc1ccc2cc(CCNC(=O)C(C)(C)C)c(=O)[nH]c2c1 | -7% | -5% | -1%
38 | CCn1c(SCC(=O)Nc2cccc(F)c2)nc2c(c1=O)SC(C)C2 (stereo not given) | -3% | -25% | 6%
39 | Cc1cc(C)n2nc(C(=O)NCc3ccccc3)cc2n1 | 4%[11.4 µM] | -17%[11.4 µM] | -2%[9.17 µM]
40 | CCn1cc(C2=NOC(C(=O)Nc3ccccc3C(=O)OC)C2)c(C)n1 (stereo not given) | nt | 2% | nt
41 | Cc1ccccc1-c1nnc(-c2ccc(Cl)cc2)o1 | 0%[11.4 µM] | 3%[11.4 µM] | -5%[9.17 µM]
42 | CCOC(=O)c1sc(NC(=O)c2noc3c2CCCC3)c(C(=O)OCC)c1C | 0% | 0% | -17%

nr | Epigenetic mod | Hsp90 Hop PPI | HBB splicing
33 | -1% | -2% | -3.1%
34 | 0% | -1% | -0.5%
35 | -2% | -6% | 1.0%
36 | nt | -2% | -0.6%
37 | nt | 0% | -0.1%
38 | nt | 1% | -1.3%
39 | -5% | -4%[11 µM] | -2.5%[0.0738 µM]
40 | nt | nt | nt
41 | -2% | 4%[11 µM] | 0.8%[0.0738 µM]
42 | nt | -2%[2.3 µM] | 0.2%

Some of these compounds in order of molar mass, smallest number first:
nr | Molecule | DNA Pol III inh | 15-hLO inh | UbGFP stabilizer
34 | N#CCSc1nnc2sc3ccccc3n12 | 2% | 4% | -9%
25 | Cc1cc(C(=O)Nc2ccc3c(c2)OCCO3)co1 | nt | 2% | nt
36 | CC1Cc2nc(SCC(N)=O)n(C)c(=O)c2S1 (stereo not given) | -7% | -21% | -2%
39 | Cc1cc(C)n2nc(C(=O)NCc3ccccc3)cc2n1 | 4%[11.4 µM] | -17%[11.4 µM] | -2%[9.17 µM]
37 | Cc1ccc2cc(CCNC(=O)C(C)(C)C)c(=O)[nH]c2c1 | -7% | -5% | -1%
32 | O=C(CC1Oc2ccccc2NC1=O)NCCc1ccccc1 (stereo not given) | -5% | 13% | 12%
27 | Cc1c(C(=O)Nc2ccncc2)sc2nc(-c3ccccc3)cn12 | -15% | -3% | 2%
33 | CCc1c(C)sc(NC(=O)C2CCCCC2C(=O)O)c1C(N)=O (stereo not given) | -5% | ? | -6%
40 | CCn1cc(C2=NOC(C(=O)Nc3ccccc3C(=O)OC)C2)c(C)n1 (stereo not given) | nt | 2% | nt
35 | CC1(C)CC(=O)CC(C2(O)C(=O)N(Cc3ccccc3)c3ccccc32)O1 (stereo not given) | -1% | -7% | 7%

nr | Epigenetic mod | Hsp90 Hop PPI | HBB splicing
34 | 0% | -1% | -0.5%
25 | nt | nt | nt
36 | nt | -2% | -0.6%
39 | -5% | -4%[11 µM] | -2.5%[0.0738 µM]
37 | nt | 0% | -0.1%
32 | -2% | -3% | 0.5%
27 | nt | -6% | 0.1%
33 | -1% | -2% | -3.1%
40 | nt | nt | nt
35 | -2% | -6% | 1.0%

nr | Molecule | DNA Pol III inh | 15-hLO inh | UbGFP stabilizer
38 | CCn1c(SCC(=O)Nc2cccc(F)c2)nc2c(c1=O)SC(C)C2 (stereo not given) | -3% | -25% | 6%
26 | Cn1nc(-c2ccc(Cl)cc2)c2cc(C(=O)NCCCN3CCCC3)sc21 | -26% | -20% | -3%
42 | CCOC(=O)c1sc(NC(=O)c2noc3c2CCCC3)c(C(=O)OCC)c1C | 0% | 0% | -17%
28 | O=C1OC(=O)c2c(Br)c(Br)c(Br)c(Br)c21 | 0% | -3% | nt
31 | CC(=O)CSc1nc2ccc(Nc3nc(N4CCOCC4)nc(N4CCOCC4)n3)cc2s1 | 5% | -24% | 0%

nr | Epigenetic mod | Hsp90 Hop PPI | HBB splicing
38 | nt | 1% | -1.3%
26 | nt | 4%[2.3 µM] | -1.3%
42 | nt | -2%[2.3 µM] | 0.2%
28 | nt | -6% | -0.6%
31 | -4% | -8% | -5.5%
